VACV mCherry inh: qHTS for Stage-Specific Inhibitors of Vaccinia Orthopoxvirus: mCherry Reporter Primary qHTS; Vaccinia virus mCherry reporter infection, fluorescence; about a quarter of the inactives have no number; Potency, µM (titrated, usually from 36.5 µM), for the others: top-dose activity change, negative = inhibition, usual class: inhibitors; actives 0.63% (n = 310,000); AID 720579, 2013; active = well fitted inhibition curve with a large enough effect; inconclusive = small, poorly fitted or top-dose-only effect; inactive = no such curve, though single readings can be large or run the other way; tested in A549 cells; also: nearly all actives have a fitted effect of over 35% in size; inactives centre near -10
Vaccinia Venus: qHTS for Stage-Specific Inhibitors of Vaccinia Orthopoxvirus: Venus Reporter Primary qHTS; Vaccinia virus Venus reporter expression, fluorescence; Potency, µM (highest dose often 36.5 µM), for inactives: at the top dose activity change, negative = inhibition, usual class: inhibitors; actives 0.46% (n = 330,000); AID 720580, 2013; active means well fitted inhibition curve with a large enough effect; inconclusive means small, poorly fitted or top-dose-only effect; inactive means no such curve, though single readings can be large or run the other way; tested in A549 cells; also: nearly all actives have a fitted effect of over 30% in size; inactives centre near -10
An asterisk follows results filed as active; i = inactive; ? = inconclusive; . = not tested or not shown; & = joins results of further samples; [ ] = dose if it differs, or a comment. % is scaled to controls: 0 for no effect and ±100 for the full control effect; potency is read from the fitted curve at half-maximal effect. Outcome played no part in choosing rows; 0.86% or so of the library scored in one or more.

SMILES	VACV mCherry inh	Vaccinia Venus
COc1ccc(-n2c(=O)c3ccccc3n(CC(=O)Nc3cccc(OC)c3)c2=O)cc1	-1%	-2%
Cc1ccc(NC(=O)c2c(C)oc3ncn(CC(C)C)c(=O)c23)nc1	-26%	-17%
COc1ccccc1NS(=O)(=O)N(C)C	.	-8%
CCOC(=O)c1c(C)[nH]c(C(=O)OCC(=O)N2CCc3ccccc32)c1C	1%	0%
Cc1cccc(NC(=S)NCc2ccc3c(c2)OCO3)c1C	i	-13%
COc1ccc(C(=O)N2CCCCC2CCN2CCOCC2)cc1 (stereo not given)	-12%	-3%
CCOc1ccc(-c2cc(C(=O)Nc3ccc(F)cc3)[nH]n2)c(C)c1	7%	2%
C=CCC[C@H](Cc1ccc(F)cc1)C(=O)OC[C@H](Cc1c[nH]c2ccccc12)NC(=O)[C@@H](CC=C)CC(=O)N[C@H](CO)Cc1ccccc1	-29%	11µM*
CCOC(=O)C(C)Sc1nc(N)c(NC(=O)c2ccc(OC)c(OC)c2)c(=O)[nH]1 (stereo not given)	i	11%
O=C(O)CS(=O)CC(=O)Nc1cccc(C(F)(F)F)c1 (stereo not given)	i	-8%
Cc1ccccc1C(=O)N(C)c1ccccc1C(=O)NCc1ccccc1	i	-4%
COc1cccc(/C=N/NC(=O)C[n+]2ccccc2)c1OC	-12%	-12%
CC1(C(=O)NS(=O)(=O)c2ccc(Cl)cc2)CCN1C(=O)C1CC1 (stereo not given)	i	1%
Nc1cc(SCc2ccc([N+](=O)[O-])cc2)ncn1	-16%	-22%
CCCCC(=O)N(C)c1c(CC)nc2c(OCCC3CCCCC3)cccn12	8%	-20%
CN(C)c1ccc(NC(=S)N2CCN(c3ncc(C(F)(F)F)cc3Cl)CC2)cc1	-14%	-8%
COc1ccc(S(=O)(=O)N2CCCCC2)cc1NC(=O)c1cnc(C)cn1	i	-2%
Cc1cc(=O)n2nc(N(C)CC(=O)NCc3ccccc3C)sc2n1	-4%	-10%
N#CC(CCc1ccccc1[N+](=O)[O-])(CCc1ccccc1[N+](=O)[O-])C(N)=O	i	-11%
CC1=NN(c2ccc(C)c(C)c2)C(=O)C1C(c1cccc(O)c1)C1C(=O)N(c2ccc(C)c(C)c2)N=C1C (stereo not given)	.	-18%
O=C(COC(=O)/C=C/c1ccccc1[N+](=O)[O-])Nc1ccc(OCc2ccccc2)cc1	-14%	-7%
COc1cccc2cc(-c3nc(-c4ccc(C)cc4)c(C)s3)c(=O)oc12	-6%	24%
Cc1ccc(S(=O)(=O)CNC(=S)c2ccc3ccccc3c2)cc1	i	-12%
CC[C@@]1(C(=O)OC)N[C@H](CN(C)C(=O)Nc2ccc(OC)cc2)[C@@H]2C(=O)N(C)C(=O)[C@@H]21	-8%	1%
Cc1cccc(NC(=S)N(CCN(C)C)Cc2cc3cc(C)cc(C)c3[nH]c2=O)c1	-15%	-13%
Later entries:
SMILES	VACV mCherry inh	Vaccinia Venus
CN(CC1CCCN(CCc2ccc(Cl)cc2)C1)C(=O)c1ccco1 (stereo not given)	-10%	-4%
CN(C1CCCCC1)S(=O)(=O)c1ccc2c(c1)c(=O)c(C(=O)NCCN1CCCC1)cn2C	-9%	-9%
CCOc1ccc(-n2c(SCc3ccc([N+](=O)[O-])cc3)nnc2-c2ccccc2)cc1	-12%	?
CC(=O)N1N=C(c2ccco2)CC1c1ccco1 (stereo not given)	-13%	-8%
CC(=O)c1cc2c(cc1N(C(=O)c1ccco1)C(C(=O)NC1CCCC1)c1ccccc1F)OCO2 (stereo not given)	i	6%
Cc1ccc(CNc2ncnc3c2nc2n3CCCC2)cc1	-5%	-14%
CCc1ccccc1NC(=O)CNC1CCCCC1	0%	-15%
Fc1ccccc1-n1ncc2c1ncn1nc(-c3ccccc3Cl)nc21	-10%	-11%
COC(=O)c1ccc(Cn2cc(C(F)(F)F)ccc2=O)cc1	i	-10%
CC(C)=NOc1nc(N(C)C)nc(N(C)C)n1	-10%	-10%
O=C(COC(=O)/C=C/c1ccccc1)NCCc1ccc(F)cc1	-7%	-5%
Cc1ccc(N(Cc2cc3ccccc3[nH]c2=O)S(C)(=O)=O)cc1	i	-9%
C[C@@H]1CN([C@H](C)CO)C(=O)CCCn2cc(nn2)CO[C@H]1CN(C)S(=O)(=O)c1ccc2ccccc2c1	-15%	-19%
CC(C)CN(C(=O)CN1CCN(c2cccc(Cl)c2)CC1)c1c(N)n(CC(C)C)c(=O)[nH]c1=O	-15%	-15%
COC(=O)C1CCN(C(=O)COC(=O)CC(NC(C)=O)c2ccccc2)CC1 (stereo not given)	-5%	-10%
Cn1c2[n+](c3ccc(Cl)cc3c1=O)Cc1ccccc1-2	-15%	-6%
COc1ccc(C(=O)NNC(=O)c2ccc(F)c(S(=O)(=O)N3CCOCC3)c2)cc1	i	-14%
CCOC(=O)C1CCN(S(=O)(=O)c2ccc(Cl)cc2)CC1	i	-20%
Cc1ccc(S(=O)(=O)c2nnn3c2nc(N2CCOCC2)c2ccccc23)cc1C	-13%	-13%
O=C(COc1ccccc1)Nc1nnc(-c2ccccc2)o1	15%	-5%
CCN(CC)S(=O)(=O)c1cccc(-c2nnc(SC(C)C#N)n2Cc2ccccc2)c1 (stereo not given)	-2%	-10%
CC1(C)Oc2ccc(C(=O)N3CCc4ccccc43)cc2N(CC(=O)N2CCCC2)C1=O	-4%	-16%
O=C(c1cccs1)n1nc(-c2cccnc2)nc1NCc1ccco1	-6%	-6%
Cc1cc(C)cc(NC(=O)CCc2c(C)nc3c4cccnc4nn3c2C)c1	6%	-8%
O=C(CCn1c(=O)oc2ccccc21)Nc1ccc2c(c1)OCCO2	i	4%
Continued.
SMILES	VACV mCherry inh	Vaccinia Venus
O=C(CSc1nnnn1-c1ccc2c(c1)OCCO2)N1CCN(C(=O)c2ccco2)CC1	-19%	-12%
COc1cc(CN(C(=O)COc2ccc(C)c(C)c2)c2ccccn2)cc(OC)c1OC	-20%	-24%
Cc1ccc(C2C(=O)N(C3CCC(C)CC3)CC(=O)N2C2CC2)cc1 (stereo not given)	-3%	3%
Cc1c(NC(=S)NC(NC(=O)CC(C)C)C(Cl)(Cl)Cl)c(=O)n(-c2ccccc2)n1C (stereo not given)	i	-11%
CN(CC(=O)O)S(=O)(=O)c1ccc(F)cc1	i	-4%
CN1C(=O)Cc2cc(S(=O)(=O)NCCc3ccc(Cl)cc3)ccc21	?	-17%&-6%
Cc1ccc([C@H]2C[C@@H](n3cc(COC(=O)c4ccccc4)nn3)[C@H](O)CN2C(=O)c2cccs2)cc1	-10%	-7%
COc1ccc(-c2cn(-c3ccccc3)c3[n+]2CCS3)cc1	-2%&-29%	-18%&-26%
O=C(CCS(=O)(=O)c1cc2c(cc1Cl)NC(=O)CO2)NCc1ccccc1Cl	-8%	8%
N#C/C(=C/c1ccc(-c2ccc(S(N)(=O)=O)cc2)o1)c1nc2ccccc2s1	-15%	314%[activator]
Nc1ncc(S(=O)(=O)c2ccc([N+](=O)[O-])cc2)s1	7.1µM*	?
COCc1nc(-c2ccc(-c3ccc(OC)cc3)nc2OC)no1	i	-18%
CCC(C)c1ccccc1NC(=O)Cc1coc2cc3c(cc12)CCC3 (stereo not given)	-5%	-14%
Cc1ccccc1CNC(=O)C1CCC(=O)N(CC2CCCCC2)C1 (stereo not given)	-12%	-6%
C(=N\n1cnnc1)/c1ccc(N2CCOCC2)s1	.	2%
O=C(CN1C(=O)c2ccccc2C1=O)N1CCN(c2ccccc2)CC1	.	-8%
CC1Cc2ccccc2N1C1=CC(=O)CCC1 (stereo not given)	7%	-3%
O=C(CN(Cc1ccccc1F)C(=O)c1csnn1)NCc1ccc2c(c1)OCO2	-12%	-13%
COc1ccc(C)cc1NC(=O)N1CCCn2nc(C)cc21	-14%	-15%
CN(CCCN1CCCCC1)C(=O)CCc1nnc(C2CCCCC2)o1	4%	7%
COc1ccc(CCN(Cc2cc3ccc(C)cc3[nH]c2=O)C(C)=O)cc1OC	-13%	-8%
Cc1ccccc1Cn1c(CN2CCN(c3cc(Cl)ccc3C)CC2)nc2c1c(=O)[nH]c(=O)n2C	-26%	-18%
O=S(=O)(Nc1nnc(-c2ccccc2)s1)c1ccc(Cl)cc1	.	15%
O=C1C2CCCN2C(c2cccs2)N1c1ccc(F)cc1 (stereo not given)	i	4%
CCOC(=O)CCC(=O)NCc1ccc2[nH]c(C)cc2c1	-14%	2%
Continuation:
SMILES	VACV mCherry inh	Vaccinia Venus
CSc1nc(-c2ccccc2)nn1C(=O)c1ccc(C)cc1	-13%	-5%
CC(=O)c1sc(NC(=O)C2CC(=O)N(Cc3ccccc3)C2)nc1-c1ccccc1 (stereo not given)	-3%	-17%
COc1ccc(Cn2c(CCC(=O)Nc3ccccc3)nc3cccnc32)cc1	-19%	-19%
CC(Nc1nc(-c2ccc(F)cc2)cs1)c1nc2cc(C(F)(F)F)ccc2n1CCCO (stereo not given)	?	?
Cc1c(Cc2ccccc2)c(=O)oc2c(C)c(OCc3nn[nH]n3)ccc12	.	-26%
Cc1cccc(C(=O)Nc2ccc(NC(=O)CN3CCOCC3)cc2)c1	i	-5%
CS(=O)(=O)c1ccccc1-c1nnc(NC(=O)c2ccc3ncsc3c2)o1	-5%	-10%
CC(N)C(=O)c1ccco1 (stereo not given)	.	-26%
COc1ccc(CCC(=O)Nc2nc3ccccc3[nH]2)cc1	.	-16%
COc1cc(C(=O)Nc2cnc(NC(=O)C(C)C)cc2C)cc(OC)c1OC	i	-10%
CC(C)c1ccc(NC(=O)CCNS(=O)(=O)c2cccc3nonc23)cc1	-3%	-21%
O=C1/C(=C\c2cccnc2)Sc2ccccc21	-12%	-3%
CC(=O)Nc1ccc(NC(=S)Nc2ccccc2)cc1	-5%	-11%
O=S1(=O)CCOC[C@H](c2ccccc2)N1Cc1ccc(F)cc1	-26%	-21%
COc1ccc(C(C)NC(=O)Cc2ccc(Br)cc2)cc1 (stereo not given)	-18%	-1%
Cc1cc(Cl)c2oc(C(=O)N(C)C(C)c3ccccn3)c(C)c2c1 (stereo not given)	i	-22%
Cc1nnc(SCC(=O)NCc2ccc3c(c2)OCO3)s1	-9%	-13%
COc1cc(/C=C2/C(=O)N(C)C(=S)N2C)ccc1OCc1cccc(F)c1	-14%	6%
Cc1cc(-c2nc3ncccc3o2)ccc1NC(=O)c1ccccc1Br	?	-19%
CC(C)N(CCO)C(=O)CCc1nnc(CCCc2ccccc2)o1	i	-8%
COc1cccc(-c2sc3ccccc3c2-c2ccc(OCCN3CCCC3)cc2)c1	?	13µM*
COc1ccc(OC)c(CN2CCN(C(=O)c3cccc(S(=O)(=O)Nc4ccc(F)cc4)c3)CC2)c1	-27%	-19%
CC1=C(C(=O)OCc2ccccc2)C(c2cccnc2)n2ncnc2N1 (stereo not given)	1%[1.46 µM]	-5%
COc1cc(OC)cc(-c2c(C#Cc3ccsc3)c3cc(-c4ccc(SC)cc4)ccc3n2C)c1	0%	-3%
COc1ccc(CCNC(=O)C(=O)NCC2OCCN2S(=O)(=O)c2ccc(Br)cc2)cc1 (stereo not given)	-10%	-12%
Next results:
SMILES	VACV mCherry inh	Vaccinia Venus
Cc1ccc(S(=O)(=O)NCC(=O)OCC(=O)NCc2cccs2)cc1	-8%	-1%
Cn1c(=O)c2c(nc(SCC(=O)Nc3ccccc3N3CCCCC3)n2C)n(C)c1=O	-1%	-15%
CC(=O)Nc1ccc(S(=O)(=O)NCCc2cn3ccsc3n2)cc1	-12%[7.34 µM]	-11%[7.34 µM]
Cc1sc2c(c1C)c(=O)n(Cc1ccccc1)c(=O)n2CC(=O)N(C)c1ccccc1	-20%	-5%
CC1CCN(CC(=O)c2c[nH]c3ccccc23)CC1	-13%	-2%
COc1ccc(-c2sc3cc(OC)ccc3c2-c2ccc(OCCN3CCOCC3)cc2)cc1	-26%	-27%
COc1cc(CN2CCc3nc(N4CCN(c5ccccc5F)CC4)ncc3C2)ccc1OC(C)C	?	?
O=C(CN1CCCC1)N1c2ccccc2Sc2ccccc21	-4%	-6%
CCOc1ccc(N=C(C)c2ccccc2O)cc1	-13%	-9%
Cc1sc(N)nc1-c1c(C)n(C)c2ccccc12	-18%	-23%
COc1ccc(S(=O)(=O)NC2CCCCC2)cc1F	i	-3%
